Screening results: PubChem BioAssay, ICCB-Longwood Screening Facility, Harvard Medical School
RVFV N-RNA inh – RVFV nucleocapsid-RNA interaction inhibition | P21700 | RVFV N-RNA binding, fluorescence polarization; active compounds read low | % bound, % (concentration not given with the values) | hit rate 0.1% among 20,000;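 active means between 0 and 58% in either replicate with normal brightness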;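 further: 100 nL library stock added to about 12 µL; 100% = protein and probe without compound and 0% = probe alone; numbers are from one replicate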
Target sequence (P21700 whole entry, looked up): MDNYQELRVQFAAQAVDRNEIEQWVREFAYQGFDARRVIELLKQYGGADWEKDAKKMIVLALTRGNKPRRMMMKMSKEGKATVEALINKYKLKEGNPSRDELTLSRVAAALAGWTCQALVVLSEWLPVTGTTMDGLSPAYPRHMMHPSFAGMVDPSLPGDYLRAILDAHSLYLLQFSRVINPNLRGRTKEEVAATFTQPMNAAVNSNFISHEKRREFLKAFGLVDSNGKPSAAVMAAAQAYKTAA
* = called active by the depositor; & = joins results of further samples. These rows are one share of the data; rates above refer to the full screens.

SMILES	RVFV N-RNA inh
O=C(N/N=C/c1cc2c(cc1Br)OCO2)c1ccc(CN2CCOCC2)cc1	91.6
NC(=S)n1[nH]c(-c2ccccc2)c(N=Nc2ccccc2O)c1=O	97.9
Cc1cc(N=Cc2c(O)ccc3ccccc23)no1	95.6
C/C(=N/NC(N)=S)C1C(=O)c2ccccc2C1=O	92.4
C=CCNCCOc1cccc(CC)c1	97.0
COc1ccccc1NC(=O)COc1ccc(/C=N/n2cnnc2)cc1OC	96.5
COC(=O)Nc1nc2ccc(C(=O)c3cccs3)cc2[nH]1	100.2
CCCCCC(=O)N1CC(C)OC(C)C1 (centres undefined)	95.0
CNC(=S)NNS(=O)(=O)c1ccc(C)cc1	103.4
Cc1onc(-c2ccccc2)c1-c1csc(CS(=O)(=O)C(C)(C)C)n1	96.4
CC1=C(C#N)C(c2ccc(OCc3ccccc3)cc2)C(C#N)=C(C)N1	85.0
Cc1cc(NC(=O)CC(C)(C)C)nc2c1c(=O)oc1ccccc12	95.8
CCOC(=O)c1ccccc1OC(=O)c1c(F)c(F)c(F)c(F)c1F	82.9
CCCCOC(=O)Sc1nc2ccccc2o1	91.0
CC1c2cccc(O)c2C(O)=C2C(=O)[C@]3(O)C(O)=C(C(N)=O)C(=O)[C@@H](N(C)C)[C@@H]3C[C@@H]21 (some centres undefined)	89.6
N#CC(C#N)=C1CCCN1CC(=O)c1ccccc1	100.0
O=C1NC(c2ccc(F)cc2)(C(F)(F)F)C(=O)N1Cc1ccco1 (centres undefined)	94.6
O=C1C2C3C=CC(C3)C2C(=O)N1/N=C/c1ccc(O)c(O)c1 (centres undefined)	105.7
CNc1nc(NC(C)(C)C)nc(OCC(F)(F)F)n1	112.4
CS(=O)(=O)NN=C1CCCCC1	88.0
N#Cc1cccc(OCc2ccccc2F)c1	81.0
Cc1cc(NC(=O)NC2CCN(Cc3ccccc3)CC2)c(C(F)(F)F)o1	96.8
CCCCN(Cc1ccccc1)Cc1ccco1	84.9
C=CCn1nnnc1SCC(=O)Nc1ccccc1C(=O)OC	100.5
Cc1ccc(S(=O)(=O)N(CC(=O)N2CCC(C)CC2)CC(=O)N2CCC(C)CC2)cc1	90.5
COc1cc(S(=O)(=O)N2CCCC2)c(OC)cc1C	94.8
CC(=O)Nc1cc(-n2c(C)nc3ccccc3c2=O)ccc1Cl	90.0
O=C1c2ccccc2CCC1Sc1nnc(-c2ccncc2)o1 (centres undefined)	103.2
CC(C)(C)NS(=O)(=O)c1ccc(Br)cc1	89.0
O=C(Cn1nnc2ccccc21)NCCSCc1ccco1	109.4
COC(=O)COc1ccc(NC(=O)c2ccco2)cc1	110.1
CN(C)Cc1ccc(CSCCNC(=O)Nc2ccccc2)o1	108.1
O=C(CCS(=O)(=O)c1ccccc1)N(Cc1ccccn1)c1nc2ccccc2s1	100.2
O=C(Nc1ccccc1-c1ccccc1)C1CCCO1 (centres undefined)	100.5
Cc1cnc2c(c1SCC(=O)N1CCC(C)CC1)c(=O)n(C)c(=O)n2C	89.4
CCN(CC)CCCN1C(=O)C(O)=C(C(=O)c2ccc(C)o2)C1c1cccnc1 (centres undefined)	87.5
O=C(O)CC1(CC(=O)Nc2cccc3nonc23)CCCCC1	96.6
CC(=O)Nc1ccc(N2CCN(C(=O)c3ccco3)CC2)cc1	106.6
CN(C)/C=N/NC(=O)c1nc(-c2cccc(-n3cccc3)c2)no1	96.8
COc1ccc(NC(=O)c2cncc(NS(=O)(=O)c3ccc(F)cc3)c2)cc1	93.1
Cc1ccccc1C1NC(=S)NC2=C1C(=O)CC(C)(C)C2 (centres undefined)	95.9
COc1ccc(/C=C2\SC(=O)N(CCC(=O)N3CCN(C)CC3)C2=O)cc1	100.6
CCOC(=O)c1ccc(-n2cnnn2)cc1	96.4
O=C(c1ccccc1-c1ccccc1)N1CCOCC1	96.5
O=C(CN1C(=O)c2ccccc2S1(=O)=O)NC1=NN(c2ccccc2)C(=O)C1	87.6
Cc1ccc(CC/C=N/N=C2\NC(=O)CS2)o1	110.2
CCC(C)(C)c1ccc(CC(C)CN2C[C@@H](C)O[C@@H](C)C2)cc1 (some centres undefined)	98.9&106.3
CN(C)c1ccc(/C=N/NC(=O)C(O)(c2ccccc2)c2ccccc2)o1	96.8
Cc1cc(NC(=O)Cn2c(=O)n(CC(=O)NCCc3ccccc3)c(=O)c3ccccc32)n[nH]1	87.2
CCc1oc2ccccc2c1C(=O)c1cc(Br)c(O)c(Br)c1	90.3
N#CC1(N2CCOCC2)CCCCC1	94.1
COC(=O)c1ccccc1NC(=O)Cn1c(C)ccc1C	101.7
C=CCN(CC=C)S(=O)(=O)c1ccc(OC)cc1	96.1
Cc1[nH]cc(Br)c(=O)c1OCC(=O)O	95.2
CC(C)Cn1c(C23CC4CC(CC(C4)C2)C3)n[nH]c1=S	102.5
O=C(NCCc1c[nH]c2ccc(Cl)cc12)C1CCCO1 (centres undefined)	84.6
CCn1c(CCc2nnc(SCC(=O)c3ccccc3)n2CC)nnc1SCC(=O)c1ccccc1	94.4
COc1ccc(OC)c(C(=O)CSC#N)c1	99.0
O=C(COc1ccc(S(=O)(=O)N2CCOCC2)cc1)NCCC1=CCCCC1	97.2
CCn1nnc2c(N3CCN(c4ccc(OC)cc4)CC3)ncnc21	90.3

(cont.)
SMILES	RVFV N-RNA inh
Cc1cc(NC(=O)COc2cc(C)c(Cl)c(C)c2)no1	98.9
COc1ccc2c(c1)c1c3c(c4c5ccccc5n(C)c4c1n2CC(O)CN(C)C)C(=O)NC3=O (centres undefined)	102.3
CCCC(=O)OCC[N+](C)(C)C	93.4
CCCCCCCCCCCCCCCC(=O)NCCO	102.9
COc1nnc(-c2ccccc2)c2ccccc12	100.9
CN1C(=O)c2oc3ccccc3c(=O)c2C1c1ccccc1 (centres undefined)	94.2
Cc1cc(C(=O)N2CCN(Cc3ccc4c(c3)OCO4)CC2)nn1C	97.6
COc1ccccc1N/C=C/C(=O)c1ccccc1	96.1
Cc1cccc(NC(=O)c2cccc(C)c2)c1	87.1
CC(C)c1ccc(NC(=O)/C=C/c2ccco2)cc1	99.0
CCOC(=O)c1cnc2c(c(C3CC3)nn2C)c1N1CCCCC1	95.1
CNC(=S)N(Cc1ccco1)C1CC(=O)N(c2ccccc2)C1=O (centres undefined)	92.3
NC(=NCCC[C@H](N)C(=O)O)N[N+](=O)[O-]	93.6
CSCCNC(=O)c1cccc(Cl)c1	92.8
O=C1Nc2ccccc2C12Nc1ccccc1S2 (centres undefined)	93.6
O=C(Cc1cc(=O)[nH]c(=O)[nH]1)NC1CCCC1	93.5
O=C(O)c1cc(N=Nc2ccc(O)c(C(=O)O)c2)ccc1O	97.8
O=C(COc1ccc2ccccc2c1Br)NCc1ccco1	95.2
Cc1ccc(N2CC(=O)N(C)C2=S)cc1	92.1
O=c1[nH]c(=S)[nH]c(O)c1C=Nc1ccc(Br)cc1	91.0
CCOC(=O)[C@H](CCc1ccccc1)N[C@H]1CCc2ccccc2N(CC(=O)O)C1=O	96.3
O=C(CCN1C(=O)/C(=C\c2ccco2)SC1=S)N1CCCC1	97.9
N#Cc1c(N)nc2sc3c(O)cc(=O)[nH]c3c2c1-c1ccc(Cl)cc1	100.3
O=C(Oc1cc(=O)oc2c1c(=O)n1c3c(cccc23)CCC1)c1ccccc1	89.1
CCCNC(=O)NS(=O)(=O)c1ccc(Cl)cc1	105.6&100.5
NC(=O)c1ncn(C2OC(CO)C(O)C2O)n1 (centres undefined)	91.7
O=C(NCCCN1CCOCC1)Nc1ccc(Cl)cc1	97.3
CNC(=O)/C(C#N)=C1\SC(CCO)C(=O)N1c1ccccc1 (centres undefined)	93.0
Cc1n[nH]c(=O)c2ccccc12	98.2
NNc1nnc(-c2ccccc2)c(-c2ccccc2)n1	85.2
S=C(c1cccc(Oc2ccccc2)c1)N1CCOCC1	100.4
O=C1NCCN1CCNS(=O)(=O)c1ccc2c(c1)CCO2	96.5
O=S(=O)(c1ccc(-c2ccno2)s1)N1CCN(c2ccncc2)CC1	98.1
OCc1ccccc1	102.9
CCOCCn1c(=NC(=O)C(C)C)sc2cc(C)ccc21	93.8
CCNC(=O)c1cccc2c1-c1ccccc1C2=O	90.9

A second format for four compounds above:
O=C(NCCCN1CCOCC1)Nc1ccc(Cl)cc1
- RVFV N-RNA inh: 97.3

CNC(=O)/C(C#N)=C1\SC(CCO)C(=O)N1c1ccccc1 (centres undefined)
- RVFV N-RNA inh: 93.0

Cc1n[nH]c(=O)c2ccccc12
- RVFV N-RNA inh: 98.2

NNc1nnc(-c2ccccc2)c(-c2ccccc2)n1
- RVFV N-RNA inh: 85.2

Carrying on.
SMILES	RVFV N-RNA inh
C=Cc1c(C)c2cc3[nH]c(cc4nc(cc5nc(cc1[nH]2)C(C)=C5CCC(=O)O)C(CCC(=O)O)=C4C)c(C)c3C=C	97.3
CC(C)c1cc(C(C)C)c(S(=O)(=O)NCCO)c(C(C)C)c1	93.7
CCCCS(=O)(=O)Nc1ccc(C(=O)NCC2CCCO2)cc1 (centres undefined)	95.2
C=CCN1C(=O)S/C(=C/c2ccc(OC)c(OCC)c2)C1=O	93.1
Nn1c(=O)[nH]c2sc3c(c2c1=O)CCCC3	84.2
O=C(c1cccs1)c1cnc2ncccn12	95.1
CCCC(=O)C1C(=O)C=C(C)OC1=O (centres undefined)	97.2
COc1cc2ncnc(NNC(=O)c3ccco3)c2cc1OC	96.6
CC1(C)C2CCC13CSN1OC13C2 (centres undefined)	102.4
CC(C)OC(=O)C(Cc1ccccc1)N1COc2ccc3c4c(c(=O)oc3c2C1)CCC4 (centres undefined)	93.4
CCn1nc(C)c(Br)c1-c1nc(-c2cccc(C)c2)no1	92.2
COc1ccc(NC(=S)Nc2ccc(S(=O)(=O)N3CCOCC3)cc2)cn1	88.4
CC1CCCCN1c1ccc(NC(=O)c2cccnc2)cc1 (centres undefined)	93.4
CC(/C=C/c1ccc(N(C)C)cc1)=N\N=C(/N)SC1CC(=O)N(c2ccccc2)C1=O (centres undefined)	94.0
O=C1CC(c2ccccc2Cl)Sc2ccccc2N1 (centres undefined)	100.0
CC(=O)S[C@@H]1CC2=CC(=O)CC[C@]2(C)[C@H]2CC[C@@]3(C)[C@@H](CC[C@@]34CCC(=O)O4)[C@H]12	103.8&80.1
COC(=O)C1C(=O)c2c(n[nH]c2C)CC1(C)C (centres undefined)	97.5
C/C(=N\c1nc2ccccc2n1C)c1cc(Cl)ccc1O	73.7
O=C(Cn1c(C(F)(F)F)nc2ccccc21)NCCN1CCOCC1	96.3
O=C(Nc1ccc(F)cc1)N1CCN(C(=O)C2COc3ccccc3O2)CC1 (centres undefined)	96.1
CCc1ccc(CN2CCN(CC)CC2)cc1	110.4
CNC(=S)Nc1ccc(S(N)(=O)=O)cc1	96.5
CCOC(=O)Cc1csc(NC(=O)C2C3C=CC(C3)C2C(=O)O)n1 (centres undefined)	91.4
Cc1nnsc1C(=O)N(Cc1ccc(Cl)cc1)Cc1ccco1	99.1
CC1CCN(C=C(S(=O)(=O)c2ccccc2)S(=O)(=O)c2ccccc2)CC1	101.9
CCOC(=O)C1=C(C)NC(C)=C(C(=O)OCC)C1c1c(F)c(F)c(F)c(F)c1F	98.9
O=C1CCC(=O)N1c1ccc(CSc2nnnn2C2CCCCC2)cc1	97.6
CCN(CC)C(=O)Nc1cccc(Cl)c1	103.7
CCc1cc(CC)c(CO)c(CC)c1CO	95.8
O=C(O)/C=C/c1ccc(Cn2ccnc2)cc1	98.7&93.2
COc1cccc(NC(=S)Nc2ccc(S(N)(=O)=O)cc2)c1	90.1
COc1cccc(-c2nc(=S)c3c(o2)CCCC3)c1	101.2
CCC1=C(C(=O)OC)C(/C=C/c2ccccc2)n2ncnc2N1 (centres undefined)	95.3
O=c1ccnc2n1COCS2	95.8
CN1CCN(C(=O)CCc2nc(-c3ccccn3)no2)CC1	96.9
Cc1cc(C)cc(-n2c(SCC(=O)NCC3CCCO3)nc3c(c2=O)SC(C)C3)c1 (centres undefined)	99.5

Overlap with the part before: 6 entries, followed by the next part.
SMILES	RVFV N-RNA inh
COc1cccc(NC(=S)Nc2ccc(S(N)(=O)=O)cc2)c1	90.1
COc1cccc(-c2nc(=S)c3c(o2)CCCC3)c1	101.2
CCC1=C(C(=O)OC)C(/C=C/c2ccccc2)n2ncnc2N1 (centres undefined)	95.3
O=c1ccnc2n1COCS2	95.8
CN1CCN(C(=O)CCc2nc(-c3ccccn3)no2)CC1	96.9
Cc1cc(C)cc(-n2c(SCC(=O)NCC3CCCO3)nc3c(c2=O)SC(C)C3)c1 (centres undefined)	99.5
CC(=O)SC1CC(=O)N(c2ccc(C(F)(F)F)cc2)C1=O (centres undefined)	96.5
CNC(=S)NCCCN1CCN(c2ccc(F)c(Cl)c2)CC1	100.1
CC(C)(C)c1cc(C(=O)NCc2ccco2)ccn1	92.6
COc1ccc(CCNC2CC(=O)N(C3CCCCC3)C2=O)cc1OC (centres undefined)	93.4
NC(=O)COc1ccc2oc(-c3ccccc3)cc(=O)c2c1	92.6
CC(C)S(=O)(=O)c1csc(C(=O)O)c1	96.4
CCc1ccccc1Nc1nc2ccccc2[nH]1	93.1
N#Cc1cc2c(nc1SCC(=O)Nc1ccc(F)cc1)CCCC2=O	92.4
CCCCCOC(=O)Nc1nc(=O)n(C2O[C@H](C)[C@@H](O)[C@H]2O)cc1F (some centres undefined)	97.7
C#CCn1nnc(-c2cc(C(F)(F)F)cc(C(F)(F)F)c2)n1	93.5
C=CCSc1nc2c(c(=O)[nH]1)C(c1ccccc1)C1=C(CCCC1=O)N2 (centres undefined)	88.8
Cc1nnc(SCCCn2c(N3CC(C)OC(C)C3)nc3c2c(=O)[nH]c(=O)n3C)s1 (centres undefined)	85.9
COc1cc2nc(N3CCN(C(=O)C4CCCO4)CC3)nc(N)c2cc1OC (centres undefined)	99.8&94.7&92.6
c1ccc(Oc2cccc(CSc3ncn[nH]3)c2)cc1	90.4
CS(=O)(=O)Nc1cccc(-c2nc3cccnc3s2)c1	95.9
Cc1ccc(-c2cc(-c3ccccc3)nc(=O)[nH]2)cc1	99.1
O=C(c1cc2ccccc2o1)c1cnc2ccccn12	95.3
Ic1ccccc1CNC1C2CCN(CC2)C1C(c1ccccc1)c1ccccc1 (centres undefined)	95.9
CCC(=O)NC(=S)Nc1cccc(NC(=O)c2ccco2)c1	97.9
